Bioassay records from PubChem BioAssay.
Beta cell apopt – blocks beta cell apoptosis | actives 0.8% (n = 300,000) | protection from apoptosis, % (concentration not given with the values) | INS-1E cytokine-induced death, ATP luminescence, 48 h; percent of positive-control rescue, neutral wells zero | AID 435005;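 active = all replicates at 75% or more, or half of them and the mean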;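 note: 0% = cytokine-treated negative control wells and 100% = positive control rescue; higher means more ATP so stronger rescue from cytokine killing; wells of about 40 µL received 100 nL stock; the first replicate is given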
E coli growth – blocks Escherichia coli growth; OD600, 23 h; stronger effect = lower value; OD600 absorbance (concentration not given with the values); actives 0.21% (n = 330,000); AID 1053175;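 active = OD600 absorbance below the run mean of sample wells minus 3.6 SD, in any replicate, cut at about 0.56 in these data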;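 note: stock transfer was 300 nL into about 60 µL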
UCH37 DUB inh – blocks the human deubiquitinase UCH37 | Q9Y5K5 | purified proteasome/UCH37, Ub-AMC cleavage fluorescence | inhibition, % (concentration not given with the values) | actives 0.33% (n = 330,000) | AID 588478;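 active = mean of two replicates above 20%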;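 note: 0% = compound-free wells with enzyme and 100% = wells lacking proteasome; stock transfer was 100 nL into about 20 µL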
Target sequence (Q9Y5K5 whole entry, looked up): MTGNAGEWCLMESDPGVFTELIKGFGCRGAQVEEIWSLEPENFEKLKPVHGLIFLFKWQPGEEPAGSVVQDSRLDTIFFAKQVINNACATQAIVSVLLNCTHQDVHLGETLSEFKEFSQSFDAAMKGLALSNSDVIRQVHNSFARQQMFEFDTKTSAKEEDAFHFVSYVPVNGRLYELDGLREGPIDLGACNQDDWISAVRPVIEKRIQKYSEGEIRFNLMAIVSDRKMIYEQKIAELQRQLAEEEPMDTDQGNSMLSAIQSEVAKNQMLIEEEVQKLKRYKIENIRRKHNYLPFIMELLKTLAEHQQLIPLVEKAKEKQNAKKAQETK
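Test system – human UCH37 enzyme supplied as purified proteasome complex · Incubation – 30 min preincubation with enzyme, 25 min cleavage at room temperature · Detection – AMC fluorescence from Ub-AMC cleavage, excitation 355 nm, emission 460 nm · Benchmarks – no-proteasome wells (full inhibition) and compound-free wells (no inhibition)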
AF4-AF9 inh – inhibitors of human MLL-AF4/AF9 interaction; AID 651704; actives 0.47% (n = 350,000); inhibition, % at 10 µM; P42568; AlphaScreen, biotin-AF4 peptide binding to FLAG-AF9;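 active = every replicate reaching a set inhibition limit, whatever the replicate mean, cut at about 25% in these data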;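 note: 0% = plate neutral control median and 100% = total signal loss; the record names both 10 and 1 µM as test concentration; the first replicate is given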
Target sequence (P42568 whole entry, looked up): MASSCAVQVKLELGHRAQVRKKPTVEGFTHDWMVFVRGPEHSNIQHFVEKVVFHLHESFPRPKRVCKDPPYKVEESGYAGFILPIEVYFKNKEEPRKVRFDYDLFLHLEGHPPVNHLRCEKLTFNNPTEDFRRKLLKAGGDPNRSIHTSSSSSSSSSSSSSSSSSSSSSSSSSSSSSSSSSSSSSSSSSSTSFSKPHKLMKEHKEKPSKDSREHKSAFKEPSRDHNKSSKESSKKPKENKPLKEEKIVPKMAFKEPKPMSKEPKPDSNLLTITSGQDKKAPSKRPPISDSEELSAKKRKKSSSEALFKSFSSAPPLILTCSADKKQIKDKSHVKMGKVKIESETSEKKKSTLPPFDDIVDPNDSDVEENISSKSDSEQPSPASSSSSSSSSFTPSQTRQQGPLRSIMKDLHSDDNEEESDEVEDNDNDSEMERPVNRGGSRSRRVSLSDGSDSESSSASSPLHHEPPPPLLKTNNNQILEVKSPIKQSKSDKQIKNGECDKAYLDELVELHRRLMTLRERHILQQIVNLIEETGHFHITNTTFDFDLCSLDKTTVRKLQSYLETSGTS
T cruzi repl – blocks replication of Trypanosoma cruzi | inhibition, % (no concentration beside the values) | T. cruzi beta-gal in NIH3T3, luminescence, 90 h | actives 1.4% (n = 300,000);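 active = mean inhibition across valid replicates above about 55%, limit read from the data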;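 note: signal also drops with host cell toxicity which is not excluded here; 0% = plate median of DMSO wells and 100% = zero luminescence signal; higher percent means less beta-gal luminescence so fewer parasites; stock transfer was 50 nL into about 50 µL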
FGF22 binding – shifts melting point of recombinant human FGF22. Q9HCT0. actives 1.5% (n = 340,000). recombinant FGF22 thermal shift, SYPRO orange fluorescence; percent of sucrose octasulfate shift, DMSO zero. calls only at 9.99 µM;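 active = melting point raised past a set limit in the mean and every replicate; three in four hits are not shown here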
Target sequence (Q9HCT0 whole entry, looked up): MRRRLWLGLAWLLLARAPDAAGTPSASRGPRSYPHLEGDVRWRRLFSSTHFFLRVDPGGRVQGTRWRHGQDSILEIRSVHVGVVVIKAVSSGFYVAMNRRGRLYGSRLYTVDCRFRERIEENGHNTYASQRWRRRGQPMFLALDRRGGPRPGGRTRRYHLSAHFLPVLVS
A1 inh – inhibitors of the anti-apoptotic protein A1, read as caspase activation; MEF A1-2A-BIM cells, Caspase-Glo 3/7 luminescence, 3 h; percent of clofoctol response, vehicle zero; caspase activation, % (concentration not given with the values); actives 0.066% (n = 330,000); AID 2462;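 active = over half of replicate activation scores above 10%, or exactly half above 10 with the replicate mean above 10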;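 note: wells of about 30 µL received 50 nL stock; many hits fall short of the cut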
rRNA inh HTS – inhibits bacterial ribosomal RNA function over humanized ribosomes; actives 1.6% (n = 350,000); E. coli WT GFP vs humanized-ribosome RFP mutants, fluorescence, 24 h; stronger effect = lower value; DMSO median 0, no signal -100; GFP signal change (wild-type ribosome), % (test concentration not listed);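 active = significant combined selectivity score with lowered wild-type GFP, culture density cut under 30%, mutant RFP and density less affected; inactive = any of these conditions unmet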; note: one replicate is shown; some compounds called inactive have numbers as strong as hits
rRNA inh HTS OD600 – also measured in rRNA inh HTS; calls as there; OD600 change, %; measured here: OD600 growth;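 optical density of the mix in the first replicate; 0 = DMSO median and -100 = no signal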
rRNA inh HTS RFP – further read-out of rRNA inh HTS, marked with its call; RFP signal change, %; measured here: RFP humanized mutant strains;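 first replicate; 0 = DMSO median and -100 = no signal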
The depositor's hits bear a star. Some of the compounds tested, so the mix of outcomes need not match the whole.

Results for COC(=O)c1cn(-c2ccc(F)cc2)c(=O)c2ccccc12 ?
Beta cell apopt: -6; E coli growth: 0.68; UCH37 DUB inh: 3.8; AF4-AF9 inh: 0.3; T cruzi repl: -10; FGF22 binding: inactive; A1 inh: 0.3; rRNA inh HTS: -16; rRNA inh HTS OD600: -18; rRNA inh HTS RFP: -7.4

How did CC(NC(=O)CC1CCCCC1)c1ccccc1 (stereo not given) do in these assays?
Beta cell apopt: -7; E coli growth: 0.62; UCH37 DUB inh: 3.3; AF4-AF9 inh: 1.8; T cruzi repl: -10; FGF22 binding: inactive; A1 inh: 0.3; rRNA inh HTS: 1; rRNA inh HTS OD600: -1; rRNA inh HTS RFP: -1.0

What do the screens show for `O=C(Nc1ccnn1C1CCN(C/C=C/c2ccccc2)CC1)C1CCCC1`?
Beta cell apopt: 0; E coli growth: 0.72; UCH37 DUB inh: 3.3; AF4-AF9 inh: 5.2; T cruzi repl: 23; FGF22 binding: inactive; A1 inh: 0.5; rRNA inh HTS: 13; rRNA inh HTS OD600: 7; rRNA inh HTS RFP: 0.9

What do the screens show for `C=CCNC(=O)c1c(N)n(-c2ccc3c(c2)OCO3)c2nc3ccccc3nc12`?
E coli growth: 0.78; UCH37 DUB inh: -2.4; T cruzi repl: 10; A1 inh: 1.1

How did COP(=O)(OC)c1nc(-c2cccc3ccccc23)oc1N1CCOCC1 do in these assays?
Beta cell apopt: -7; E coli growth: 0.71; UCH37 DUB inh: inactive; T cruzi repl: 0; A1 inh: -0.6

What do the screens show for `O=C(NNC(=S)NC(=O)c1ccc(Br)cc1)c1ccc([N+](=O)[O-])cc1`?
Beta cell apopt: 2; E coli growth: 0.72; UCH37 DUB inh: 3.5; AF4-AF9 inh: 0.9; T cruzi repl: 17; FGF22 binding: inactive; A1 inh: 1.1; rRNA inh HTS: -19; rRNA inh HTS OD600: -24; rRNA inh HTS RFP: 4.7

What do the screens show for `COc1ccc(CCNC(=O)c2ccc(N3CCCC3=O)cc2)cc1OC`?
Beta cell apopt: 3; E coli growth: 0.71; UCH37 DUB inh: 2.2; AF4-AF9 inh: 4.0; T cruzi repl: -19; FGF22 binding: inactive; A1 inh: 0.6; rRNA inh HTS: -9; rRNA inh HTS OD600: -4; rRNA inh HTS RFP: -5.7

What do the screens show for `Cc1cc(C)nc(N2CCC(C(=O)NNC(=O)Cc3ccccc3)CC2)n1`?
Beta cell apopt: -2; E coli growth: 0.68; UCH37 DUB inh: -2.7; AF4-AF9 inh: -0.9; T cruzi repl: -3; FGF22 binding: inactive; A1 inh: 0.8; rRNA inh HTS: 18; rRNA inh HTS OD600: 11; rRNA inh HTS RFP: 0.9

What do the screens show for `COc1ccc(-c2cc(Nc3ccccc3NC(=O)C(F)(F)F)n(CCC#N)n2)cc1`?
Beta cell apopt: -9; E coli growth: 0.66; UCH37 DUB inh: 4.4; AF4-AF9 inh: 9.9; T cruzi repl: 2; FGF22 binding: inactive; A1 inh: 0.8; rRNA inh HTS: -23; rRNA inh HTS OD600: -29; rRNA inh HTS RFP: -11

How did COCCN(C(=O)COC(=O)COc1ccc(Cl)c(C)c1)c1c(N)n(Cc2ccccc2)c(=O)[nH]c1=O do in these assays?
Beta cell apopt: -3; E coli growth: 0.71; UCH37 DUB inh: 2.5; AF4-AF9 inh: 0.0; T cruzi repl: -4; FGF22 binding: inactive; A1 inh: 0.5; rRNA inh HTS: 9; rRNA inh HTS OD600: 12; rRNA inh HTS RFP: 2.2

Results for CC1CCCCC12NC(=O)N(CC(=O)OCc1ccc(Br)cc1)C2=O (stereo not given) ?
Beta cell apopt: -4; E coli growth: 0.71; UCH37 DUB inh: -0.2; AF4-AF9 inh: -2.1; FGF22 binding: inactive; A1 inh: 0.9; rRNA inh HTS: 4; rRNA inh HTS OD600: 8; rRNA inh HTS RFP: 0.6

How did CCOc1cc(S(=O)(=O)n2cnc(C)c2)ccc1Cl do in these assays?
E coli growth: 0.62; UCH37 DUB inh: 1.3; AF4-AF9 inh: -4.4; T cruzi repl: -1; FGF22 binding: inactive; A1 inh: -0.2; rRNA inh HTS: 19; rRNA inh HTS OD600: 12; rRNA inh HTS RFP: 0.9

Results for O=C(O)CCC(=O)Nc1ccc(-c2csc(Nc3cccc4ccccc34)n2)cc1 ?
Beta cell apopt: -1; E coli growth: 0.7; UCH37 DUB inh: 0.4; AF4-AF9 inh: 2.7; FGF22 binding: inactive; A1 inh: 0.8; rRNA inh HTS: -14; rRNA inh HTS OD600: -2; rRNA inh HTS RFP: 1.7

How did O=C(NCCN1CCCC1=O)C1CCC(=O)N(CCc2cccc(F)c2)C1 (stereo not given) do in these assays?
Beta cell apopt: 2; E coli growth: 0.67; UCH37 DUB inh: 1.5; AF4-AF9 inh: -1.7; T cruzi repl: 7; FGF22 binding: inactive; A1 inh: -0.4; rRNA inh HTS: 3; rRNA inh HTS OD600: 14; rRNA inh HTS RFP: 0.8

How did COc1ccc(-c2noc(N3CCC(C(=O)Nc4ccccc4OC)CC3)n2)cc1 do in these assays?
Beta cell apopt: -4; E coli growth: 0.7; UCH37 DUB inh: 1.9; AF4-AF9 inh: -5.4; T cruzi repl: 19; FGF22 binding: inactive; A1 inh: 0.6; rRNA inh HTS: 4; rRNA inh HTS OD600: 12; rRNA inh HTS RFP: 2.1

2 neighbouring entries from above:
Results for COC(=O)c1cn(-c2ccc(F)cc2)c(=O)c2ccccc12 ?
Beta cell apopt: -6; E coli growth: 0.68; UCH37 DUB inh: 3.8; AF4-AF9 inh: 0.3; T cruzi repl: -10; FGF22 binding: inactive; A1 inh: 0.3; rRNA inh HTS: -16; rRNA inh HTS OD600: -18; rRNA inh HTS RFP: -7.4

How did CC(NC(=O)CC1CCCCC1)c1ccccc1 (stereo not given) do in these assays?
Beta cell apopt: -7; E coli growth: 0.62; UCH37 DUB inh: 3.3; AF4-AF9 inh: 1.8; T cruzi repl: -10; FGF22 binding: inactive; A1 inh: 0.3; rRNA inh HTS: 1; rRNA inh HTS OD600: -1; rRNA inh HTS RFP: -1.0

The listing continues.
What do the screens show for `CN(C)S(=O)(=O)c1ccc(C(=O)NCc2nnc(SCC(=O)Nc3ccc(F)cc3)n2-c2ccc(F)cc2)cc1`?
Beta cell apopt: -11; E coli growth: 0.74; UCH37 DUB inh: 4.6; T cruzi repl: -15; A1 inh: 1.8

Results for CC(Oc1cccnc1[N+](=O)[O-])C(=O)Nc1cccc(Cl)c1 (stereo not given) ?
Beta cell apopt: -2; E coli growth: 0.69; UCH37 DUB inh: 2.6; AF4-AF9 inh: 2.3; FGF22 binding: inactive; A1 inh: 0.1; rRNA inh HTS: -10; rRNA inh HTS OD600: -7; rRNA inh HTS RFP: 3.0

Results for O=C(O)CCCCCNC(=O)c1ccccc1Br ?
Beta cell apopt: -7; E coli growth: 0.7; UCH37 DUB inh: 4.2; T cruzi repl: -9; A1 inh: 0.0

What do the screens show for `O=C(CCNS(=O)(=O)c1ccc2[nH]c(=O)oc2c1)Nc1cccc(Br)c1`?
Beta cell apopt: -4; E coli growth: 0.67; UCH37 DUB inh: -0.1; AF4-AF9 inh: -1.5; T cruzi repl: -4; FGF22 binding: inactive; A1 inh: 0.5; rRNA inh HTS: -10; rRNA inh HTS OD600: -5; rRNA inh HTS RFP: 3.1

How did CC(C)CN(C(=O)COC(=O)CCC(=O)c1ccc(Cl)cc1)c1c(N)n(Cc2ccccc2)c(=O)[nH]c1=O do in these assays?
Beta cell apopt: -3; E coli growth: 0.65; UCH37 DUB inh: 2.2; AF4-AF9 inh: -0.9; T cruzi repl: 8; FGF22 binding: inactive; A1 inh: -0.9; rRNA inh HTS: 8; rRNA inh HTS OD600: 8; rRNA inh HTS RFP: 1.8

How did Cc1cccn2c(=O)nc(SCC(=O)NCc3ccco3)nc12 do in these assays?
Beta cell apopt: -1; E coli growth: 0.66; UCH37 DUB inh: 6.9; AF4-AF9 inh: 1.8; T cruzi repl: -2; FGF22 binding: inactive; A1 inh: -0.1; rRNA inh HTS: 5; rRNA inh HTS OD600: 11; rRNA inh HTS RFP: -3.4

How did Cn1nc(Cc2n[nH]c(=S)n2C)c2ccccc2c1=O do in these assays?
Beta cell apopt: -10; E coli growth: 0.63; UCH37 DUB inh: 4.8; T cruzi repl: 1; FGF22 binding: inactive; A1 inh: -1.0; rRNA inh HTS: -3; rRNA inh HTS OD600: 0; rRNA inh HTS RFP: -2.7

How did CCCC(=O)Nc1ccc2c(c1)nc(CCN1CCN(c3ccccn3)CC1)n2C do in these assays?
Beta cell apopt: 2; E coli growth: 0.66; UCH37 DUB inh: 0.1; AF4-AF9 inh: -3.9; T cruzi repl: -15; FGF22 binding: inactive; A1 inh: 0.6; rRNA inh HTS: 0; rRNA inh HTS OD600: 5; rRNA inh HTS RFP: 0.2

What do the screens show for `COC(=O)C1=C(O)/C(=C\c2ccc(CNC(=O)C(=O)Nc3ccc(C)c(C)c3)o2)N=C1C`?
Beta cell apopt: -8; E coli growth: 0.78; UCH37 DUB inh: 8.7; T cruzi repl: -5; A1 inh: 0.3

How did COc1ccccc1N1C(=NC(=O)CCc2ccccc2)SC2CS(=O)(=O)CC21 (stereo not given) do in these assays?
Beta cell apopt: 0; E coli growth: 0.71; UCH37 DUB inh: 2.6; AF4-AF9 inh: -4.5; T cruzi repl: 4; FGF22 binding: inactive; A1 inh: -0.3; rRNA inh HTS: 5; rRNA inh HTS OD600: 13; rRNA inh HTS RFP: -2.8

How did CN(C)CCCN=Cc1c(O)n(Cc2ccc3c(c2)OCO3)c(=O)c2ccccc12 do in these assays?
Beta cell apopt: 5; E coli growth: 0.72; UCH37 DUB inh: 5.5; T cruzi repl: 75*; A1 inh: 0.5

What do the screens show for `Cc1ccc(-c2nc(S(=O)(=O)c3ccc(F)cc3)c(SCC(=O)NCC3CCCO3)o2)cc1` (stereo not given)?
Beta cell apopt: -11; E coli growth: 0.72; UCH37 DUB inh: 7.0; T cruzi repl: 18; A1 inh: -0.4

How did O=C(NCCCN1CCCC1=O)c1ccc(Cl)c(S(=O)(=O)N2CCCCC2)c1 do in these assays?
Beta cell apopt: 3; E coli growth: 0.66; UCH37 DUB inh: 1.6; AF4-AF9 inh: 3.2; FGF22 binding: inactive; A1 inh: -0.2; rRNA inh HTS: -1; rRNA inh HTS OD600: -4; rRNA inh HTS RFP: -0.8

How did COc1ccc(NC(=O)CCC(=O)c2ccc(C(C)C)cc2)cc1 do in these assays?
Beta cell apopt: 1; E coli growth: 0.69; UCH37 DUB inh: 1.7; AF4-AF9 inh: 0.1; T cruzi repl: -16; FGF22 binding: inactive; A1 inh: -0.2; rRNA inh HTS: 1; rRNA inh HTS OD600: -2; rRNA inh HTS RFP: -3.2

Results for c1ccc(SCc2nc3ccccc3[nH]2)cc1 ?
Beta cell apopt: -6; E coli growth: 0.72; UCH37 DUB inh: 4.5; T cruzi repl: -6; A1 inh: -5.6

What do the screens show for `O=C(NC1CCCc2ccccc21)c1cccnc1` (stereo not given)?
Beta cell apopt: -4; E coli growth: 0.67; UCH37 DUB inh: 0.8; T cruzi repl: -6; A1 inh: 0.2
